High-throughput results from PubChem BioAssay.
TRPML1 inh – qHTS for Inhibitors of the Human Mucolipin Transient Receptor Potential 1 (TRPML1). TRPML1-inducible cells, Ca2+ dye fluorescence, FDSS; stronger effect = lower value; inhibition of EC80 agonist-evoked calcium signal. activity change, negative = inhibition, % (no concentration beside the values). hit rate 0.02% among 390,000. AID 624415, 2012; in the data active means activity change below about -50%; inconclusive means about -30% to -50%; inactive means above about -30%;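 also: stimulus is agonist 54-4 at its EC80 concentration; % is scaled to controls: 0 for no effect and ±100 for the full control effect; compound concentration not given in the record; the text of the record puts the active cut at -80%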
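Tet-induced TRPML1-DL cells loaded with Ca8 no-wash calcium dye were read kinetically on FDSS. Compound addition was followed by EC80 agonist 54-4 (4 uM final); inhibition was read over 110 s.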
Six1-Eya2 inh – qHTS Assay for Inhibitors of the Six1/Eya2 Interaction | activity change, % (test concentration not listed) | Homeobox protein SIX1 (Homo sapiens) + Protein phosphatase EYA2 (Homo sapiens), … | hit rate 0.56% among 360,000 | AlphaScreen GST-Six1/His-Eya2 binding, biochemical; stronger effect = lower value; control for the full effect not named in the record | AID 651725, 2012; in the data active = activity change below about -65%; inconclusive = about -30% to -65%; inactive = above about -30%; also: % is scaled to controls: 0 for no effect and ±100 for the full control effect; compound concentration not given in the record
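Compounds are tested against tagged Six1 and Eya2 proteins bridged by glutathione donor and nickel acceptor beads; after a one-hour incubation at 37 °C without light, AlphaScreen emission is recorded.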
CtBP-E1A inh – qHTS Assay for Inhibitors of the CtBP/E1A Interaction; AlphaScreen GST-E1A/His-CtBP binding, 1536-well; stronger effect = lower value; control for the full effect not named in the record; CtBP / adenovirus E1A interaction (AlphaScreen); activity change, % (test concentration not listed); hit rate 0.49% among 340,000; in the data active means activity change below about -65%; inconclusive means about -30% to -65%; inactive means above about -30%; also: % is scaled to controls: 0 for no effect and ±100 for the full control effect; compound concentration not given in the record
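AlphaScreen with 125 nM GST-E1A and 125 nM His-CtBP (5X stocks) in Tris pH 8.0, 300 mM NaCl, BSA, Tween 20, TCEP. Compounds preincubated 2 h at 37 deg C, then glutathione donor/nickel acceptor beads added for 1 h at 37 deg C in dark.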
D2 potentiator – Beta-Arrestin HTS for Positive Allosteric Modulators of the Human D2 Dopamine Receptor: Potentiators; D(2) dopamine receptor (Homo sapiens), P14416; DiscoveRx D2 beta-arrestin cells, luminescence, 90 min; 100% = 57 uM dopamine signal; potentiation, % (no concentration beside the values); hit rate 0.23% among 360,000; AID 624464, 2012; active = potentiation of 50% or more; inconclusive = 30% to 50%; inactive = 30% or less;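 also: compound concentration not given in the record; tested on top of an EC20 dose of dopamine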
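D2 cells co-treated with compound plus 50 nM dopamine (EC20) for 90 min at 37 deg C to detect potentiation. Beta-arrestin recruitment was read as enzyme-fragment luminescence after 1 h at ambient temperature. Full response was set by 57 uM dopamine.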
TRPV1 PAM – HTS Assay for Compounds that Act as Potentiators of the Vanilloid Receptor 1. potentiation, % at 8.33 µM. TRPV1-expressing cells, Fluo-8 calcium influx, capsaicin EC20 potentiation; host cell line not named in the record; control for the full effect not named in the record. hit rate 0.02% among 320,000. AID 540277, 2011. Transient receptor potential cation channel subfamily V member 1 (Homo sapiens), Q8NER1; active means potentiation above 80%; inconclusive means 30% to 80%; inactive means below 30%; also: 0% is about no effect
Target sequence (Q8NER1 whole entry, looked up): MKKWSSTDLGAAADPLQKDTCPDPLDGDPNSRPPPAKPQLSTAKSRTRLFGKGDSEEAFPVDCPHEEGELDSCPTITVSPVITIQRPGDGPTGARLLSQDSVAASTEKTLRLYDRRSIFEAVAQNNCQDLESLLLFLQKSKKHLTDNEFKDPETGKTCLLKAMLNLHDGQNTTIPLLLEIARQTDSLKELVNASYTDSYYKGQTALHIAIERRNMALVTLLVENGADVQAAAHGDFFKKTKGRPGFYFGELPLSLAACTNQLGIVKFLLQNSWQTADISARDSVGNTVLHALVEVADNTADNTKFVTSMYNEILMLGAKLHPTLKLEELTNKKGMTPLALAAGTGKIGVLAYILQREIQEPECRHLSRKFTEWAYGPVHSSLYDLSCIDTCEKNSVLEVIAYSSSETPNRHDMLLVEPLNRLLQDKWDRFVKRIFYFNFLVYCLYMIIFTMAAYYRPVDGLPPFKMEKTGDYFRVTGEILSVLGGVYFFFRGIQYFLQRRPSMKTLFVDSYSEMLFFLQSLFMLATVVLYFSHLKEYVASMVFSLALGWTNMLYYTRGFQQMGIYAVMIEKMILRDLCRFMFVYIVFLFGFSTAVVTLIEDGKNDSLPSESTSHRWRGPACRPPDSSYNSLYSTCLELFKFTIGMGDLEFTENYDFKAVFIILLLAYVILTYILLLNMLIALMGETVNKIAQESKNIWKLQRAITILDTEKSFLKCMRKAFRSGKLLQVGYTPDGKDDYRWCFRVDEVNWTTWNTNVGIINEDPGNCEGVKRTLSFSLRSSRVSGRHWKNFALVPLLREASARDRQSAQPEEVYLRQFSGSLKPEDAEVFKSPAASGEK
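Fluo-8 calcium influx in TRPV1-expressing cells, kinetic read (ex 480/em 520 nm). Compound added and read 3 min for agonist activity, followed by capsaicin at EC20 final and 2 min further read for enhancement.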
TRPML1 ag – qHTS for Agonists of the Human Mucolipin Transient Receptor Potential 1 (TRPML1); activation, % (test concentration not listed); hit rate 0.12% among 410,000; Mucolipin-1 (Homo sapiens), Q9GZU1; TRPML1-expressing cells, Ca2+ dye fluorescence, FDSS; host cell line not named in the record; reference of the full effect not given here; in the data active = activation above about 50%; inconclusive = about 30% to 50%; inactive = below about 30%; also: 0% is about no effect; the text of the record puts the active cut at 80%
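Tetracycline-induced TRPML1-DL cells are seeded and incubated overnight before loading with a no-wash Ca2+ dye and quencher. Agonist activity is taken from the 110 s fluorescence read following compound pin-transfer on an FDSS, before EC80 54-4 challenge.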
Starred values were filed as active, the others as inactive; ? = inconclusive; · = no result given.

SMILES	TRPML1 inh	Six1-Eya2 inh	CtBP-E1A inh	D2 potentiator	TRPV1 PAM	TRPML1 ag
O=C(N/N=C/c1ccccc1C(=O)O)c1cccc(S(=O)(=O)N2CCCCC2)c1	-7	1	0	0	9	-0.2
CC1(C(=O)NS(=O)(=O)c2ccccc2Cl)CCN1C(=O)CC1CC1 (centres undefined)	·	0	2	-2	·	-0.2
CCC(C)C(N=C1NS(=O)(=O)c2ccccc21)C(=O)N1CCC(C)CC1 (centres undefined)	-12	-4	5	-25	10	0.9
O=C(COC(=O)C1(c2ccc(Cl)cc2)CCCC1)N1CCc2ccccc21	19	4	3	7	18	2.1
COc1cc(OC)nc(/N=C/N(C)C)n1	17	7	4	-2	26	0.4
Cc1ccc(NC(=O)c2sc3ncn(CC(=O)N4CCN(c5ccccn5)CC4)c(=O)c3c2C)cc1	14	1	-3	6	·	-0.7
COc1ccc(C)cc1NC(=O)C1CCN(S(=O)(=O)c2ccc3c(c2)NC(=O)CO3)CC1	6	1	-8	-32	-17	-0.7
CCC1(C)CC(c2nc(-c3ccc(OC)cc3)cs2)CCS1 (centres undefined)	-6	7	12	-3	4	1.1
CC(=O)Nc1nc(SCc2ccc(Cl)cc2Cl)n[nH]1	14	1	2	-1	-11	-0.2
C[C@H](CO)N1C[C@H](C)[C@H](CN(C)S(=O)(=O)c2cccs2)OCc2cnnn2CCCC1=O	-1	-1	5	-3	·	-0.3

4 compounds from above, arranged by molecular weight, rising:
SMILES	TRPML1 inh	Six1-Eya2 inh	CtBP-E1A inh	D2 potentiator	TRPV1 PAM	TRPML1 ag
COc1cc(OC)nc(/N=C/N(C)C)n1	17	7	4	-2	26	0.4
CC1(C(=O)NS(=O)(=O)c2ccccc2Cl)CCN1C(=O)CC1CC1 (centres undefined)	·	0	2	-2	·	-0.2
O=C(COC(=O)C1(c2ccc(Cl)cc2)CCCC1)N1CCc2ccccc21	19	4	3	7	18	2.1
COc1ccc(C)cc1NC(=O)C1CCN(S(=O)(=O)c2ccc3c(c2)NC(=O)CO3)CC1	6	1	-8	-32	-17	-0.7

(list continues)
SMILES	TRPML1 inh	Six1-Eya2 inh	CtBP-E1A inh	D2 potentiator	TRPV1 PAM	TRPML1 ag
O=C(CN1CCN(c2ccccn2)CC1)Nc1cccc(S(=O)(=O)N2CCCC2)c1	-13	-9	·	-17	17	0.8
Cc1ccc(C(=O)O/N=C(\N)c2ccc(Br)cc2)cc1	9	1	-3	28	0	-1.2
COc1ccc(CCC(C)Nc2cccc(F)c2)cc1 (centres undefined)	7	14	23	-3	-9	1.8
COc1ccccc1N1CCN(C(=O)c2sc3nc(C)nc(N4CCN(c5ccccn5)CC4)c3c2C)CC1	22	?	-24	-7	0	0.5
NC(=O)CSc1nc2ccccc2c(=O)n1Cc1ccco1	1	-5	-8	-38	26	-0.8
Cc1cccc(NC(=O)CN(C)C(=O)c2ccc(N3CCCCCC3)c([N+](=O)[O-])c2)c1C	-12	-2	-1	-13	·	2.1
COc1ccc(CCN=Cc2c(C)[nH]n(-c3ccc([N+](=O)[O-])cc3)c2=O)cc1OC	14	4	3	2	-4	-0.6
C=Cc1ccc(CC2(C)C(=O)Nc3ccc(-c4cccnc4)cc32)cc1 (centres undefined)	·	9	15	-6	·	-0.5
Cc1cc(Cn2nc(-c3ccccc3)cc2C(=O)NCc2cccc(C(F)(F)F)c2)on1	-6	4	-10	-20	10	7.0
CCCCC(=O)Nc1cc(OCC)c(NC(=S)NC)cc1OCC	-3	11	4	-1	-19	-0.7
COc1ccc(Cl)cc1C(=O)n1nc(C)cc1C	10	6	-1	9	-11	-1.2
COc1ccc(NC(=O)c2ccc(NC3=NC4CS(=O)(=O)CC4S3)cc2)cc1 (centres undefined)	0	0	-5	-4	20	-0.1
COc1ccc(Oc2coc3cc(OC(=O)/C=C/c4ccccc4)ccc3c2=O)cc1	5	-26	?	-6	-2	-1.2
Cc1ccc2oc(C(=O)N3CCN(C)C[C@@H]3C(C)C)c(C)c2c1	2	1	2	3	0	-0.5
Cc1ccccc1NC(=O)Cc1nc(COC(=O)c2cc([N+](=O)[O-])ccc2NCCO)cs1	21	-28	-29	-8	8	2.5
CCOC(=O)C1=CN(Cc2cccc(-c3ccc(F)cc3)c2)S(=O)(=O)N(C)C1C (centres undefined)	0	15	13	-1	·	0.5
Cc1cccc(C(=O)NC2=NCCS2)c1	-12	-5	1	-1	10	-0.4
O=C(c1nn(-c2ccccc2)c(=O)c2ccccc12)N1CCN(c2ccccn2)CC1	9	-2	-3	-16	-8	1.6
c1ccc(-n2nnnc2SCCCSc2nc3ccccc3s2)cc1	63	36	57	-5	17	4.8
O=C(Nc1ccccc1)c1nc[nH]c1C(=O)NCCN(CCNC(=O)c1[nH]cnc1C(=O)Nc1ccccc1)CCNC(=O)c1[nH]cnc1C(=O)Nc1ccccc1	-7	-1	-25	-8	·	0.4
COc1ccc(C2=CC(c3sccc3C)n3nnnc3N2)cc1 (centres undefined)	14	-1	0	-6	5	5.7
COc1cccc2cc(C(N)=O)/c(=N\NC(=O)c3ccccc3)oc12	4	-17	-6	-4	-11	-1.7
O=C(c1ccc(NC2=NC3CS(=O)(=O)CC3S2)cc1)N1CCN(c2ccccc2F)CC1 (centres undefined)	6	2	4	-6	1	0.1
N/C(=N\OC(=O)C12CC3CC(CC(C3)C1)C2)c1cccnc1	-1	8	4	-1	-11	2.2
CC(C)CN(C(=O)c1cccc(S(=O)(=O)N2CCN(c3ccc(F)cc3)CC2)c1)C1CCS(=O)(=O)C1 (centres undefined)	6	-6	9	-21	5	-0.5
Cc1ccc(Nc2nc(-c3cccnc3)cs2)cc1Cl	7	-3	-1	-1	4	0.7
CCOC(=O)CN1C(=O)/C(=C/c2cccc(Br)c2)Oc2ccccc21	-14	21	·	-14	-14	0.5
O=S(=O)(c1ccc2oc3ccc(S(=O)(=O)N4CCCCC4)cc3c2c1)N1CCCCC1	-9	0	10	0	-3	-0.4
O=c1[nH]c(CSc2nc(-c3ccc(F)cc3)cs2)nc2ccccc12	-4	1	0	-3	23	1.7
CCCCN(Cc1cc2cccc(C)c2[nH]c1=O)S(C)(=O)=O	·	0	-8	-8	-1	·
CC1(C)CC(NC(=O)c2c(N)no[n+]2[O-])CC(C)(C)N1	34	7	-9	-3	3	0.5
Cc1ccnc(NC(=O)COc2ccc3c(c2)CCC3)c1	-3	3	-2	-9	-1	-0.2
O=[N+]([O-])c1ncccc1OCc1ccc(-c2ccccc2)cc1	-12	-17	-6	-10	12	-0.1
CC(=NOC(=O)C1CCCCC1)c1nccs1	0	6	9	-5	·	-0.7
Cc1ccc(C(=O)OCC(=O)N(C)c2c(N)n(Cc3ccccc3)c(=O)[nH]c2=O)s1	0	8	1	-4	-3	-0.2
CCN(CC)S(=O)(=O)c1ccc2nc(NC(=O)c3ccco3)sc2c1	-8	1	5	-1	-14	-0.4
O=C1CC(/C=C/c2ccccc2)=Nc2ccccc2N1	19	-10	3	-5	-14	3.2
COc1ccccc1CNc1nc(NCc2cccc(OC)c2OC)c2sccc2n1	17	-12	-28	-21	·	0.2
COc1ccc(C2(c3ccc(OC)cc3)NC(=O)N(Cn3nnc4ccccc4c3=O)C2=O)cc1	3	-8	-2	-3	6	4.7
O=C(Nc1nc2ccccc2s1)c1c(F)cccc1Cl	-6	0	10	0	-15	0.0

Some of these compounds in order of their number in CtBP-E1A inh, lowest first:
SMILES	TRPML1 inh	Six1-Eya2 inh	CtBP-E1A inh	D2 potentiator
O=[N+]([O-])c1ncccc1OCc1ccc(-c2ccccc2)cc1	-12	-17	-6	-10
COc1ccc(CCN=Cc2c(C)[nH]n(-c3ccc([N+](=O)[O-])cc3)c2=O)cc1OC	14	4	3	2
N/C(=N\OC(=O)C12CC3CC(CC(C3)C1)C2)c1cccnc1	-1	8	4	-1

Remaining list, next part
SMILES	TRPML1 inh	Six1-Eya2 inh	CtBP-E1A inh	D2 potentiator	TRPV1 PAM	TRPML1 ag
COC(=O)c1ccc(CNCC(O)COc2ccc(-c3ccccc3)cc2)cc1 (centres undefined)	-13	-3	4	-3	-4	0.8
Cc1ccc(S(=O)(=O)c2c[nH]c3ccc(Cl)cc3c2=O)cc1	-9	-6	5	-5	8	-0.3
COc1ccc(S(=O)(=O)N2CCCCCC2)cc1C(=O)N(C)Cc1c(F)cccc1Cl	14	4	6	0	-13	-0.2
CCCCN(C)CCNC(=S)Nc1ccc2nc(N3CCN(CC)CC3)cc(C)c2c1	-2	-2	-5	-13	3	-0.3
Clc1ccccc1CSc1nncn1NC/C=C/c1ccccc1	6	-1	-10	-5	-4	1.5
Oc1ccc(C[C@H]2CNCCN2CCc2cccc(F)c2)cc1	9	0	0	-18	-9	0.2
COc1cccc(/C=C2/CN(C)CC3=C2OC(N)=C(C#N)C3c2cccc(OC)c2)c1 (centres undefined)	29	-19	-15	-22	-4	1.6
CCOc1ccccc1N(CC(=O)NCc1ccncc1)S(=O)(=O)c1ccccc1	-4	14	4	-2	0	-0.4
COC(=O)CSc1nc2sc(C)c(C)c2c(=O)n1C	-6	5	0	-2	-7	0.3
CCOC(=O)[C@]12Cc3c(cc(OC)c(OC)c3OC)[C@H]1N(Cc1ccccc1)C(=O)c1cc(OC)ccc12	·	-7	-4	·	·	0.6
CCCc1cc(=O)oc2c3c(cc(OCC(=O)NCCN4CCOCC4)c12)OC(C)(C)CC3	·	4	-1	-87	8	·
Cc1ccc2c(c1)C(c1ccc(F)cc1)N(C(=O)c1ccc(S(=O)(=O)N(C)C)cc1)CC(=O)N2 (centres undefined)	·	-4	0	-8	6	·
Cc1cccc(-c2nnc(SCC3CNC(=O)O3)n2-c2ccc(Cl)cc2)c1 (centres undefined)	7	2	2	-2	3	0.0
O=C(Nc1cccc(-c2csc(Nc3ccccc3)n2)c1)c1cc([N+](=O)[O-])cc(C(F)(F)F)c1	-22	1	11	21	8	0.1
CN(C)C(=O)c1ccc(NC(=O)COC(=O)/C=C/c2cccs2)cc1	-17	4	-14	4	5	0.3
O=C(NCc1nc2ccccc2[nH]1)C1=C[C@@H](C2CC2)C[C@@H](OCc2ccc(CO)cc2)O1	7	-4	-1	-40	-15	-0.8
CS(=O)(=O)c1ccc(C(=O)OCC(=O)N(CCc2ccccc2)Cc2ccccc2)cc1	4	-3	3	-19	-3	0.9
COc1ccc(Br)cc1C(=O)Nc1ccc(N2CCN(S(C)(=O)=O)CC2)cc1	36	-15	-15	3	12	0.0
O=C(Nc1ccc(F)cc1F)Nc1ccc(F)cc1F	6	2	6	-5	-6	-0.1
CCn1c(=O)c(=O)[nH]c2cc(C(=O)N3CCN(c4ccccc4F)CC3)ccc21	54	-3	1	-5	-37	-0.4
COCc1cc(OC)nc(-c2csc(C)n2)n1	-1	6	·	-15	·	-0.3
CC(=O)c1ccccc1OCCn1nc(C(=O)O)c2ccccc2c1=O	16	3	2	-3	1	-0.2
Cc1ccc(S(=O)(=O)N(C)c2ccc(OCC(=O)O)cc2)cc1	-12	7	1	9	0	0.4
